From PubChem
CapD inh: CapD enzyme inhibition; hit rate 0.23% among 140,000; purified CapD enzyme, fluorescence intensity read-out; stronger effect = lower value; some hits fall short of the stated cut; z-score (test concentration not listed);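 active = z-score under -4 in either of two replicates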;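 also: stock transfer was 100 nL into about 40 µL; score is relative to mean and spread of the plate; one replicate is shown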
AID504770: growth inhibitors of E. coli YBA685 in a screen for V. cholerae RctB (chromosome II replication) inhibitors | E. coli YBA685 rctB-dependent plasmid, OD600 growth, 3 h; stronger effect = lower value | AID 504770 | hit rate 0.27% among 130,000 | z-score (test concentration not listed);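 active = z-score under -2 on both plates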;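 also: wells of about 30 µL received 100 nL stock; score is relative to mean and SD of the test wells; the first replicate is given; strong numbers were not always called active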
* = called active by the depositor.

Results for COC(=O)c1c(NC(=S)NC(=O)c2ccccc2)sc2c1CCCC2 ?
CapD inh: 0.02; AID504770: 0.25

What do the screens show for `Cc1cc(Br)ccc1OCC(=O)N1CCc2ccccc21`?
CapD inh: -0.085; AID504770: -0.3

How did CC(=O)Oc1ccccc1C(=O)NCC1CCCO1 (stereo not given) do in these assays?
CapD inh: 46.4; AID504770: 0.05

Results for Cc1cc(C)c(S(=O)(=O)N2CCN(C(=O)C3CC3)CC2)c(C)c1 ?
AID504770: -0.8

How did CCOc1ccc(-n2c(SCc3nc(N)nc(N)n3)nc3ccccc32)cc1 do in these assays?
AID504770: -0.35

How did CC1CN(C(=O)C23CC4CC(C)(CC(C)(C4)C2)C3)CC(C)O1 (stereo not given) do in these assays?
CapD inh: 0.375; AID504770: -0.65

How did O=C(N/N=C/c1cccc2c1OCO2)c1ccc(C(F)(F)F)cc1 do in these assays?
CapD inh: 3.19

How did c1ccc2c(c1)CCN(Cc1ccsc1)C2 do in these assays?
CapD inh: 0.005; AID504770: 1.15

What do the screens show for `CSC1=NCCN1C(=O)C12CC3CC(CC(C3)C1)C2`?
AID504770: 0.15

What do the screens show for `CCc1nn(CC(=O)O)c(=O)c2cc3ccccc3n12`?
CapD inh: 9.18; AID504770: 1.85

Results for CCOC(=O)c1nn(-c2ccc(OC)cc2)c(=O)c2c(N)scc12 ?
CapD inh: 0.905; AID504770: 0.15

Results for Cc1onc(-c2ccccc2)c1CNC(=O)C1CC1 ?
CapD inh: 0.04; AID504770: -0.3

How did CC(C)CC(C(=O)O)n1c(O)c(C2=c3cc(Br)ccc3=NC2=O)sc1=S (stereo not given) do in these assays?
CapD inh: -3.19

What do the screens show for `COc1ccc(Nc2nc(NCCCC(C)C)nc(OC)n2)c(OC)c1`?
CapD inh: 0.45; AID504770: -0.2

Results for CC1CCCCN1CCNc1ccc2nnc(-c3ccc(F)cc3)n2n1 (stereo not given) ?
CapD inh: 0.275; AID504770: 1.9

How did COc1cc(/C=c2/sc3nc4ccccc4n3c2=O)cc(Br)c1OC do in these assays?
CapD inh: -0.095

Results for CC(C)(C)C(=O)Nc1ccc2nn(-c3ccccc3)nc2c1 ?
CapD inh: 135; AID504770: -0.9

How did Cc1nn(C(=O)c2c(Cl)cccc2Cl)c(C)c1Cc1c(F)cccc1Cl do in these assays?
CapD inh: 0.205

Results for COc1ccc(Cn2nnnc2CN(Cc2cccs2)Cc2cc3ccc(OC)cc3[nH]c2=O)cc1 ?
AID504770: 2.55

What do the screens show for `CCOc1cc(/C=C2/C(=O)NC(=O)N(c3ccc(OC)cc3)C2=O)ccc1OCCBr`?
CapD inh: 0.6

What do the screens show for `O=C(COC(=O)C1CCC1)c1ccc(F)cc1`?
AID504770: 0.55

How did CCOc1ccc(NC(=O)CSc2nc3n[nH]c(C)c3c(=N)n2-c2ccc(OCC)cc2)cc1 do in these assays?
CapD inh: 12.9

How did CN(C)C(=O)C[n+]1cccc(/C=N/O)c1 do in these assays?
CapD inh: 6.33; AID504770: 0.6

How did CC(C)Cn1c(SCn2nnc3ccccc3c2=O)nnc1-c1ccco1 do in these assays?
AID504770: -0.9

What do the screens show for `COC(=O)N/N=C(\C)c1ccc2c(c1)Nc1ccccc1S2`?
AID504770: 0.2

Results for Cc1noc(C)c1CSc1nc2ccccc2c(=O)n1C(C)C ?
AID504770: -0.1

How did CC(=O)NC(Cc1c[nH]c2ccccc12)C(=O)N1CCN(S(=O)(=O)c2ccccc2)CC1 (stereo not given) do in these assays?
AID504770: 0.4

Results for CCOC(=O)C1CCC(CNC(=O)NC(c2ccccc2)c2nnc(-c3ccccc3)o2)CC1 (stereo not given) ?
CapD inh: -0.455; AID504770: 0.85

How did CCn1c(=O)ccc2cc(OC)ccc21 do in these assays?
AID504770: -0.25

Results for O=c1oc2ccccc2n1CCc1ccccc1 ?
CapD inh: 0.02; AID504770: -0.3

An excerpt from above in order of formula weight, rising:
How did CN(C)C(=O)C[n+]1cccc(/C=N/O)c1 do in these assays?
CapD inh: 6.33; AID504770: 0.6

Results for CC(C)(C)C(=O)Nc1ccc2nn(-c3ccccc3)nc2c1 ?
CapD inh: 135; AID504770: -0.9

What do the screens show for `COC(=O)N/N=C(\C)c1ccc2c(c1)Nc1ccccc1S2`?
AID504770: 0.2

How did Cc1nn(C(=O)c2c(Cl)cccc2Cl)c(C)c1Cc1c(F)cccc1Cl do in these assays?
CapD inh: 0.205

How did COc1cc(/C=c2/sc3nc4ccccc4n3c2=O)cc(Br)c1OC do in these assays?
CapD inh: -0.095

Results for CCOC(=O)C1CCC(CNC(=O)NC(c2ccccc2)c2nnc(-c3ccccc3)o2)CC1 (stereo not given) ?
CapD inh: -0.455; AID504770: 0.85

What do the screens show for `CCOc1cc(/C=C2/C(=O)NC(=O)N(c3ccc(OC)cc3)C2=O)ccc1OCCBr`?
CapD inh: 0.6

Next compounds follow:
What do the screens show for `CC1(c2ccccc2)CC(C)(C)N(C(=O)Nc2cccc(Cl)c2)c2ccccc21` (stereo not given)?
CapD inh: 0.225

Results for O=C(O)c1cc(F)c(Cl)cc1Cl ?
CapD inh: 0.33

Results for N#Cc1cccc(NS(=O)(=O)c2ccc(Cl)cc2)c1 ?
CapD inh: 0.885

How did COC(=O)c1ccccc1Sc1nc(C)cc(C(F)(F)F)c1C#N do in these assays?
CapD inh: 0.505

What do the screens show for `c1ccc(-c2onc3ccc(-n4cccc4C4OCCO4)cc23)cc1`?
CapD inh: -0.19; AID504770: 0.8

What do the screens show for `O=C(c1ccc(Cl)cc1)C(O)c1c[nH]c2ccccc12` (stereo not given)?
CapD inh: -0.265; AID504770: -0.6

Results for CC(OC(=O)c1ccccc1)C(=O)NCc1ccco1 (stereo not given) ?
AID504770: 0.2

How did COCCN1C(=O)c2ccccc2C(C(=O)NCC2CCCO2)C1c1cccs1 (stereo not given) do in these assays?
CapD inh: -0.635; AID504770: 0.75

How did COc1ccc(Cl)cc1C(=O)NCc1ccco1 do in these assays?
AID504770: -0.55

How did NC(=O)c1cc2cccc3c2n(c1=O)CCC3 do in these assays?
CapD inh: 1.1

Results for CN(C)C=Nc1ncc2c([nH]c3ccccc32)c1C#N ?
CapD inh: -0.075; AID504770: 1.45

How did COc1cc(C=C2C(=O)NC(=O)NC2=O)cc(Br)c1OCc1ccccc1Cl do in these assays?
CapD inh: 0.155

How did CCN1C(=O)c2ccccc2Sc2ccc(C(=O)NC(C)C)cc21 do in these assays?
CapD inh: -0.5; AID504770: -1.3

Results for O=C(CSc1nnc(-c2ccccc2Br)o1)NC(=O)NC1CCCC1 ?
AID504770: -1.4

What do the screens show for `O=C(c1cn(-c2ccccc2)nc1-c1cccs1)N1CCN(c2ccccc2)CC1`?
AID504770: -0.05

What do the screens show for `O=c1[nH]c(C2CC2)nc2c1CSCC2`?
CapD inh: -0.81; AID504770: 1.2

What do the screens show for `CC1CCCC(C)N1CC(O)COCC1COc2ccccc2O1` (stereo not given)?
CapD inh: -0.275; AID504770: -0.25

How did COC(=O)c1sccc1Oc1ccc(C(F)(F)F)cc1N do in these assays?
CapD inh: -0.385; AID504770: -0.5

What do the screens show for `O=C(CSc1nc2ccc(NS(=O)(=O)c3ccccc3)cc2s1)NCc1ccco1`?
CapD inh: 0.225

What do the screens show for `Cc1ccc(C)c(N2C(=O)c3ccc(C(=O)OCC#N)cc3C2=O)c1`?
AID504770: 0.35

What do the screens show for `CCOc1cccc(OCC)c2c(C)[n+](C)c(C)c1-2`?
CapD inh: -0.37; AID504770: -0.5

How did COc1ccc(NS(=O)(=O)c2cccc(-c3nnc4n3CCCCC4)c2)cc1 do in these assays?
AID504770: 0.85

How did Cc1c(C)c2ccc(OC(=O)c3cccs3)cc2oc1=O do in these assays?
CapD inh: 4.27; AID504770: 0.35

Results for Cn1ncc(S(=O)(=O)Cc2ccccc2)c(Cl)c1=O ?
CapD inh: -1.11; AID504770: -0.2

Results for c1ccc(C2SCCN2c2ccccc2)cc1 (stereo not given) ?
AID504770: 0.25

How did N#CCSc1ccc(F)cc1 do in these assays?
CapD inh: 0.45

How did COc1ccccc1Nc1nc2ccccc2s1 do in these assays?
CapD inh: -0.47; AID504770: -0.15

What do the screens show for `COc1ccc(CC(=O)N2CCN(c3ccccc3OC)CC2)cc1`?
CapD inh: 0.445; AID504770: 1.9

How did CCOC(=O)c1cnc2nc(SC)nn2c1N do in these assays?
CapD inh: -0.92

Results for COC(=O)C1=C(C)N(CCc2ccc(OC)c(OC)c2)C(=O)/C1=C\N(C)C ?
CapD inh: -1.03

How did C=CCOc1ccc(/C=c2\sc3nc(=O)c(C)nn3c2=O)cc1 do in these assays?
CapD inh: -0.11

Results for COC(=O)C1=C(C)OC(N)=C(C#N)C1c1ccccc1OC(=O)c1ccc(Cl)cc1 (stereo not given) ?
CapD inh: 0.83

How did CC(=O)Oc1c(-c2ccco2)oc2ccccc2c1=O do in these assays?
CapD inh: 106; AID504770: -0.5

What do the screens show for `CCc1nn(-c2cc(Cl)ccc2OC)c2c1C(=O)CCC2`?
CapD inh: -0.05; AID504770: -0.35

What do the screens show for `O=C(C1=NN(c2ccc(Br)cc2)C2(S1)c1ccccc1C(c1ccc(Br)cc1)=NN2c1ccccc1)c1ccccc1` (stereo not given)?
CapD inh: -0.285

Results for CCc1c(C(=O)OCc2ccccc2)[nH]c(C)c1C ?
CapD inh: 0.01; AID504770: -0.25

Results for CCOc1ccc(N(CC(=O)NCCc2ccc(OC)c(OC)c2)S(=O)(=O)c2ccc(SC)cc2)cc1 ?
CapD inh: 0.31

Results for CC1CCCC(C)N1C(=O)COC(=O)c1ccc(S(=O)(=O)N2CCCC2)cc1 (stereo not given) ?
AID504770: 0.05

What do the screens show for `Cc1cccc(NC(=O)CC2SC(=O)NC2=O)c1` (stereo not given)?
CapD inh: 0.26

How did Cn1[nH]c(=O)c2ccccc2c1=O do in these assays?
CapD inh: -0.105

What do the screens show for `CNC12CC3CC(CC(S)(C3)C1)C2`?
CapD inh: 0.135; AID504770: -0.1

How did COC(=O)c1ccccc1NC(=O)NC(C)(C)C do in these assays?
CapD inh: 72; AID504770: 0.65

How did Cc1ccc(C)c(C(=O)N2CCC(c3nc4c(nnn4Cc4ccc(F)cc4F)c(=O)[nH]3)CC2)c1 do in these assays?
CapD inh: -0.085; AID504770: 0.4

Results for O=C1C2C3c4ccccc4C(c4ccccc43)C2C(=O)N1c1ccc2ccccc2c1 (stereo not given) ?
CapD inh: -0.27

How did CN(Cc1ccco1)C(=O)c1ccc2c(c1)N(Cc1cccc(F)c1)C(=O)c1ccccc1S2 do in these assays?
CapD inh: 0.96; AID504770: 2.1

What do the screens show for `COc1ccccc1NC(=O)CCSc1cccc2cccnc12`?
CapD inh: 62; AID504770: -0.5

How did O=C(CSc1c(-c2ccccc2)[nH]c2ccccc12)N1CCCC1 do in these assays?
CapD inh: 0.35; AID504770: 0.2

How did Cc1nn(-c2ccccc2)c2sc(C(=O)OCC(=O)N3CCCC3)cc12 do in these assays?
AID504770: -0.25

What do the screens show for `O=C(CSC1CCCC1)Nc1ccccc1Br`?
CapD inh: 0.33; AID504770: -0.05

What do the screens show for `Cc1ccc(OC(C)C(=O)NC(C)(C#N)C(C)C)cc1` (stereo not given)?
AID504770: -0.5

What do the screens show for `c1ccc(-c2nnc(CSc3nnc4n3CCCCC4)o2)cc1`?
AID504770: -0.25

How did CCN1CCCC1CNC(=O)c1sc2ncnc(N(C)c3ccccc3)c2c1C (stereo not given) do in these assays?
CapD inh: -0.315

Results for Cn1c(=O)c2c(nc(N3CCOCC3)n2CC(=O)c2ccc(Br)cc2)n(C)c1=O ?
CapD inh: 0.785

What do the screens show for `COc1ccc(S(N)(=O)=O)cc1C(=O)OCc1nc2ccccc2s1`?
AID504770: 0.2

Results for O=C(NC1CCCC1)C1CCCN1S(=O)(=O)c1cccc2cccnc12 (stereo not given) ?
CapD inh: 16.6; AID504770: 0.05

Results for O=C(Cn1c(=O)c2ccccc2n(CC(=O)Nc2ccc(Br)cc2)c1=O)NCc1ccco1 ?
CapD inh: -0.43; AID504770: 0.2

Results for CCc1ccc(-c2csc(NC(=O)CCC(=O)N3CCN(C(C)=O)CC3)n2)cc1 ?
AID504770: -1.2

Results for N#Cc1c(O)c2ccccc2[nH]c1=O ?
CapD inh: 1.6; AID504770: -0.15

What do the screens show for `COc1cccc(NC(=O)CSc2nc3c(sc4ccccc43)c(=O)n2CCCN2CCOCC2)c1`?
CapD inh: 1.05; AID504770: 0.6

What do the screens show for `OCC#CCSc1nc2ccccc2s1`?
AID504770: -0.6

Reprinted from the part before: 2 compounds, followed by the next part.
What do the screens show for `COc1cccc(NC(=O)CSc2nc3c(sc4ccccc43)c(=O)n2CCCN2CCOCC2)c1`?
CapD inh: 1.05; AID504770: 0.6

What do the screens show for `OCC#CCSc1nc2ccccc2s1`?
AID504770: -0.6

Results for C/C=C1\NC(=S)N(c2ccccc2)C1=O ?
CapD inh: -1.95; AID504770: -1

Results for O=C(O)CCCCC1CCSS1 (stereo not given) ?
CapD inh: -0.305; AID504770: 0.75

What do the screens show for `COC(=O)CCS(=O)(=O)c1cccc2c(S(=O)(=O)CCC(=O)OC)cccc12`?
CapD inh: 0.28; AID504770: -0.65

How did Cc1ccc(C(=O)[C@H]2[C@H](c3ccc(F)cc3)C(C#N)(C#N)[C@@H]3c4ccccc4C=CN32)cc1 do in these assays?
CapD inh: 0.94

How did COc1ccc(NC(=O)c2cn(CCC#N)nc2-c2ccc(OC)cc2)cc1 do in these assays?
AID504770: -0.85

How did c1ccc(N2CCN(c3ncnc4sccc34)CC2)nc1 do in these assays?
AID504770: -0.7

What do the screens show for `CSC1=NCCN1S(=O)(=O)c1ccccc1`?
AID504770: 1.15
